T cruzi inh – blocks replication of Trypanosoma cruzi; T. cruzi beta-gal in NIH3T3, luminescence, 90 h; inhibition, % (concentration not given with the values); 300,000 compounds, 1.4% hits; AID 1885;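 active means mean inhibition across valid replicates above about 55%, limit read from the data; inconclusive means mean below that limit but half or more replicates reach it; inactive means mean below it, under half of replicates reach it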;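 further: signal also drops with host cell toxicity which is not excluded here; 0% = plate median of DMSO wells and 100% = zero luminescence signal; higher percent means less beta-gal luminescence so fewer parasites; stock transfer was 50 nL into about 50 µL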
RanGTP-Imp inh – inhibitors of RanGTP-importin-beta interaction, primary screen, biochemical, FRET, CFP-Ran, YFP-importin-beta, homogeneous; cell-free CFP-Ran/YFP-importin-beta FRET ratio; inhibition, % (test concentration not listed); 300,000 compounds, 1.1% hits;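 active means most replicates above 15%; inconclusive means exactly half above 15%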;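 further: 0% = DMSO wells and 100% = Ran loaded with GDP instead of GTP; wells of about 40 µL received 100 nL stock; the first replicate is given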
Ecoli rRNA inh – selective bacterial rRNA inhibition in E. coli | GFP signal change (wild-type ribosome), % (concentration not given with the values) | E. coli WT GFP vs humanized-ribosome RFP mutants, fluorescence, 24 h; active compounds read low; DMSO median 0, no signal -100 | 350,000 compounds, 1.6% hits | AID 720706;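 active means significant combined selectivity score with lowered wild-type GFP, culture density cut under 30%, mutant RFP and density less affected; inactive means any of these conditions unmet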; further: one replicate is shown; some compounds called inactive have numbers as strong as hits
Beta cell apopt – beta cell apoptosis inhibition. INS-1E cytokine-induced death, ATP luminescence, 48 h; percent of positive-control rescue, neutral wells zero. protection from apoptosis, % (no concentration beside the values). 300,000 compounds, 0.8% hits;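 active means all replicates at 75% or more, or half of them and the mean; inconclusive means half reach 75% but not the mean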;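 further: 0% = cytokine-treated negative control wells and 100% = positive control rescue; higher means more ATP so stronger rescue from cytokine killing; wells of about 40 µL received 100 nL stock; the first replicate is given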
AF4-AF9 inh – blocks AF4 peptide binding to human AF9 | inhibition, % at 10 µM | P42568 | 350,000 compounds, 0.47% hits | AlphaScreen, biotin-AF4 peptide binding to FLAG-AF9;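 active means every replicate reaching a set inhibition limit, whatever the replicate mean, cut at about 25% in these data; inconclusive means mean inhibition reaches that limit but some replicates miss it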;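 further: 0% = plate neutral control median and 100% = total signal loss; the record names both 10 and 1 µM as test concentration; the first replicate is given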
Target sequence (P42568 whole entry, looked up): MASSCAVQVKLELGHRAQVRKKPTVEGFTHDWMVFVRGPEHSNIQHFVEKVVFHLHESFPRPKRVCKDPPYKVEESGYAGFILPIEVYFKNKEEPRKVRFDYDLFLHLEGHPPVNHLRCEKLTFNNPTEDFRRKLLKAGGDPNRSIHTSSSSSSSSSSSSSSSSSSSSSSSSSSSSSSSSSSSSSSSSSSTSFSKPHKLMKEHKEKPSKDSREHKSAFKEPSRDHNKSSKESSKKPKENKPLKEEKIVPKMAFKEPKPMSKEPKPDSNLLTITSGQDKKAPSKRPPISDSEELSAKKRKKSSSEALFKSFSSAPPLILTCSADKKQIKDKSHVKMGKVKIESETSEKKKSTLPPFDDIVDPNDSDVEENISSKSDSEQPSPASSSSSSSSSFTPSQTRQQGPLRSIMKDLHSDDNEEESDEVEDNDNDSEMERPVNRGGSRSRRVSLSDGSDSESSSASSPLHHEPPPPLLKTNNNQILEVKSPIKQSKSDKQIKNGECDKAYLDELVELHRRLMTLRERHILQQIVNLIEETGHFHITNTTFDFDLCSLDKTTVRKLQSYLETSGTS
Calb FLC – affects C. albicans growth with fluconazole; C. albicans CaCi-2 (fluconazole-resistant clinical isolate) + fluconazole, Alamar Blue growth, 48 h; growth inhibition, % (no concentration beside the values); 300,000 compounds, 0.57% hits;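 active means most replicates above 75%; inconclusive means exactly half above 75%; inactive means most below 75%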;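 further: all wells also contain fluconazole at 8 µg/ml as a sub-toxic cotreatment; 0% = median of DMSO wells and 100% = median of geldanamycin control wells; wells of about 8 µL received 7.5 nL stock; the first replicate is given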
Bfl-1 A1 inh – inhibitors of the anti-apoptotic protein A1, read as caspase activation | MEF A1-2A-BIM cells, Caspase-Glo 3/7 luminescence, 3 h; percent of clofoctol response, vehicle zero | caspase activation, % (concentration not given with the values) | 330,000 compounds, 0.066% hits;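 active means over half of replicate activation scores above 10%, or exactly half above 10 with the replicate mean above 10; inconclusive means replicate mean below 10 yet half the replicates above 10; inactive means over half of replicates below 10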;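 further: wells of about 30 µL received 50 nL stock; many hits fall short of the cut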
Vif A3G – HIV-1 Vif–A3G interaction blockers – biochemical, TR-FRET, GST-Vif 1-94, biotin-A3G peptide, dose response retest, primary screen (AID 1117319); TR-FRET GST-Vif / biotin-A3G peptide binding; higher % means a stronger effect; test concentration not given here; strong numbers were not always called active; inhibition, %, or IC50 in µM where a hit was titrated; 260,000 compounds, 0.57% hits;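 active means above the screen mean plus three standard deviations and confirmed in dose response; inconclusive means results disagree or hit not tested in dose response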;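 further: Vif residues 1-94 fused to GST binding biotinylated APOBEC3G peptide 110-148; 0% = full assay without inhibitor and 100% = GST in place of GST-Vif; retest series ran down from 100 µM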
Ecoli rRNA inh OD600 – also measured in Ecoli rRNA inh; calls as there; OD600 change, %; measured here: OD600 growth;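 optical density of the mix in the first replicate; 0 = DMSO median and -100 = no signal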
Ecoli rRNA inh RFP – recorded beside Ecoli rRNA inh, whose call it bears; RFP signal change, %; measured here: RFP humanized mutant strains;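 first replicate; 0 = DMSO median and -100 = no signal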
Active calls of the source: *; u = inconclusive; x = no result given; & = joins results of further samples.

Compound	T cruzi inh	RanGTP-Imp inh	Ecoli rRNA inh	Ecoli rRNA inh OD600	Ecoli rRNA inh RFP	Beta cell apopt	AF4-AF9 inh	Calb FLC	Bfl-1 A1 inh	Vif A3G
C/C(=N\Nc1ccc(S(N)(=O)=O)cc1[N+](=O)[O-])c1ccco1	2	6.6	3	3	-3.8	4	-1.4	-5	-0.3	-3%
CCOC(=O)c1cnn(-c2nc3c(C)cccc3s2)c1C	17	2.8	x	x	x	-1	x	-3	0.2	20%
CN(C)c1ccc2c(O)cc(=O)n(C)c2c1	3	0.1	x	x	x	-3	x	9	-0.3	u
O=C(Nc1ccc([N+](=O)[O-])cc1)C1C(c2ccccc2)=C1c1ccccc1	12	3.8	24	7	7.6	5	-1.9	34	0.0	2%
CC(C)c1ccc(NC(=O)c2ccccc2NC(=O)C2CC=CCC2C(=O)O)cc1 (centres undefined)	x	x	2	-2	-1.9	0	-1.9	28	-0.5	x
COc1ccc(N2CCN(Cc3nc(-c4ccccc4)no3)CC2)cc1	-7	-1.2	-19*	13*	3.9*	4	4.7	-8	-1.1	2%
O=c1c([N+](=O)[O-])cc(C(F)(F)F)cn1Cc1c(Cl)cccc1Cl	38	-1.1	x	x	x	11	x	47	0.4	-5%
COc1ccc(N=C2NC(=O)/C(=C\C=C\c3ccccc3)S2)cc1	14	2.4	x	x	x	6	2.0	36	-0.3	u
Cc1cccc(C(=O)NCC(c2ccco2)N(C)C)c1 (centres undefined)	-18	2.6	24	8	3.3	-20	0.9	-18	2.3	4%
COc1ccc(S(=O)(=O)N2CCN(c3ccc4nnc(-c5ccc(F)cc5)n4n3)CC2)cc1	10	-0.1	-5	6	31	14	6.8	-7	-0.2	-7%
COc1ccc(CNC(=O)CN(Cc2ccccc2OC)C(=O)c2csnn2)cc1	18	1.0	-1	-3	-0.4	-3	3.5	-9	0.1	x
CCN(c1ccc(NC(=O)COC(=O)c2ccc(S(=O)(=O)N3CCCC3)cc2)cc1)C(C)C	-7	u	x	x	x	0	x	9	-0.3	1%
CCN1CCN(CC(=O)c2cc(Cl)ccc2Cl)CC1	-14	x	2	2	46	-5	3.2	3	1.6	8%
O=c1[nH]c(N2CCN(c3ccccc3)CC2)nc2c1CCCC2	-18	5.1	x	x	x	-1	x	17	-0.5	3%
COc1ccc(-n2nc(C(=O)NCC(=O)N3CCCCCC3)c3ccccc3c2=O)cc1	-10	u	4	-9	-2.1	3	-5.7	1	0.5	x
COC(=O)c1sc(NC(=S)NC(=O)c2ccccc2Cl)nc1C	3	2.1	x	x	x	x	-0.7	9	-7.1	-19%
Cc1cc(C)c(OCC(=O)N(Cc2ccccc2)C2CCS(=O)(=O)C2)c(C)c1 (centres undefined)	3	0.1	-3	-2	-1.1	0	-4.0	6	0.1	x
Cc1cc(C(=O)NP(=O)(N2CCOCC2)N2CCOCC2)c(C)n1-c1ccc(N(C)C)cc1	17	3.7	-3	-10	-2.8	-3	11	2	-0.4	23%
COc1ccc(S(=O)(=O)NCC2CCCO2)cc1Cl (centres undefined)	-4	-1.9	13	4	3.0	-5	-1.2	0	1.0	-6%
Cn1nnc(NC(=S)NC(=O)c2cccs2)n1	-18	u	9	1	4.0	-4	-5.2	16	-2.5	x
CCOC(=S)SCc1cn2cccc(C)c2n1	-10	-4.9	8	18	2.2	-9	-1.1	-6	-0.2	u
O=C(N/N=C/c1cc2cc3c(cc2nc1Cl)OCO3)c1ccncc1	-27	-0.1	3	7	-3.1	0	-7.5	14	0.6	0%
Cc1ccccc1NC(=O)CSc1nc(-c2ccccc2)cc(=O)[nH]1	-14	-6.8	16	17	4.7	x	-16	-2	0.0	x
CCn1c(SCC(=O)OC)nnc1-c1c[nH]c2ccccc12	-20	-2.0	8	6	1.9	0	-9.7	-16	1.1	x
CCN(CC)S(=O)(=O)c1ccc(Nc2cc(C)nc3ncnn23)cc1	-3	-4.4	-11	-6	-10	-8	1.5	40	0.4	-2%
CCOc1ccc(NS(=O)(=O)c2ccc3ncsc3c2)cc1	-4	4.6	-11	-13	3.1	-7	0.9	0	-0.7	x
Nc1cccc2c3c(oc12)CCCC3	6	1.6	5	14	-1.5	2	-2.7	22	0.3	x
Cc1ccc(N=C2CSC(=O)N2)cc1	-4	u	-7	-6	-16	-3	-0.9	-3	-0.4	-4%
CCOC(=O)c1c(NC(=O)CN2CCN(C(=O)C3CCCO3)CC2)sc(C)c1C (centres undefined)	-2	-0.9	1	-25	-2.8	-1	-3.1	8	-1.9	x
N#Cc1ccc(CSc2nnc(NC(=O)c3ccc(=O)[nH]c3)s2)cc1	4	u	11	9	2.4	-13	x	19	-0.2	x
CN1CCN(c2nc3ccccn3c(=O)c2/C=C(\C#N)S(=O)(=O)c2ccccc2)CC1	12	72*	x	x	x	-4	1.9	-7	0.0	18%
CC1=NNC(=O)C1CCC(=O)N/N=C/c1ccco1 (centres undefined)	-25	3.6	16	11	-1.1	-7	-0.3	-6	0.1	1%
Cn1c(Cc2csc(N)n2)nnc1SC/C=C/c1ccccc1	-3	0.5	x	x	x	-13	x	-3	0.0	22%
CN1CCN(C(=O)C2(NC(=O)Nc3cccc(F)c3)CCCCC2)CC1	-9	2.9	x	x	x	3	x	4	0.7	-8%
COc1cccc(NC(=O)CN2C(=O)NC(c3ccccc3)(c3ccccc3)C2=O)c1	2	-4.3	-1	-37	-6.3	6	-2.2	7	-0.2	x
Cc1ccc(OCCn2cnc(Cl)c2Cl)cc1	x	x	-4	-4	-0.3	1	1.3	0	-0.9	8%
CN1CCC(N(C)CC(C)(C)NS(=O)(=O)c2ccccc2)CC1	43	6.6	9	3	-4.2	-1	8.1	13	0.2	32%
CC1=CC(C)(C)N(C(=O)c2ccccc2)c2ccc(C)cc21	18	-2.5	x	x	x	x	x	-6	x	3%
Cc1nn(-c2ccc(N3CCOCC3)nn2)c(C)c1CCC(=O)Nc1ccccc1	-7	1.0	1	4	-1.9	0	-2.0	2	-1.6	5%
CCOc1ccc(C(=O)NNC(=O)c2cc(C)oc2C)cc1	5	-0.9	5	8	-1.2	-9	-0.9	-7	-0.4	6%
CCOC(=O)C1CCN(S(=O)(=O)c2ccc(-n3cnnn3)c(C)c2)CC1	3	5.3	11	7	-0.9	-2	-2.7	12	0.1	2%
Cc1ccc(C(=O)NCCCNCCCN(C)C)cn1	-10	4.4	x	x	x	-2	x	-4	0.1	13%
O=C(Nc1ccc(F)cc1)C1CCCN(S(=O)(=O)c2cccc3cccnc23)C1 (centres undefined)	11	-0.6	-4	-18	0.4	4	-5.4	-6	-0.4	2%
Cc1c(C)c2cc(Cl)c(O)c(CN3CCN(C)CC3)c2oc1=O	1	-0.5	x	x	x	-2	x	-3	0.9	5%
Cc1ccccc1NC(=O)CCOc1ccccc1	-4	2.9	7	-4	2.0	2	-1.8	-4	-0.7	-6%
CC(C)c1ccc(NC(=O)c2cc(S(=O)(=O)N3CCCC3)c[nH]2)cc1	-14	-2.7	-24	-35	0.3	-7	0.6	1	-0.2	x
Cc1ccc(S(=O)(=O)Nc2ccc(S(=O)(=O)N3CCOCC3)cc2)cc1	-5	4.1	4	3	-4.3	-2	-4.7	-3	0.6	x
COc1cccc(CNC(=O)CN2C(=O)CSc3ccc(S(=O)(=O)N4CCCCC4)cc32)c1	4	0.9	-2	-7	2.0	-1	0.6	-4	0.3	x
O=[N+]([O-])C(/C=C(\Cl)[N+](=O)[O-])=C1N(Cc2ccc(Cl)nc2)CCN1Cc1ccc(Cl)nc1	-13	-4.4	x	x	x	3	x	-3	-0.4	1%
Cc1cc(C)n2nc(C(=O)Nc3ccc(N4CCOCC4)cc3)nc2n1	-22	-1.7	0	7	-3.2	6	x	3	0.1	13%
Cc1nc2ccc(NC(=O)C3CCN(S(=O)(=O)c4cccs4)CC3)cc2s1	5	-5.5	x	x	x	2	x	-24	-0.1	-3%
CCn1c(COc2ccccc2C)nnc1SCC(=O)N1CCCCC1	4	-0.5	x	x	x	2	x	6	-0.1	-3%
Cc1cc(C(=O)NN=C2CCCC2)c2ccccc2n1	11	6.7	5	3	1.3	-1	-0.4	-2	0.1	2%
CC1(C)CC(=O)C(CS(=O)(=O)c2ccccc2)=C(Cl)C1	11	-4.7	10	9	1.0	-21	-2.4	-1	-0.4	x
Cc1cc(NC(=O)COc2ccc(F)c(Cl)c2)no1	-4	-0.8	10	5	0.4	-4	-1.4	-1	-0.3	x
O=C(NCc1ccccn1)C(=O)Nc1cccc2ccccc12	-13	-1.3	4	4	2.5	-4	-2.0	-3	0.9	x
CCCCCC(=O)N1CCN(CCN=CC2=C(O)CC(c3ccc(OC)c(OC)c3)CC2=O)CC1 (centres undefined)	2	2.6	12	20	17	-4	-1.1	4	1.4	5%&7%
NC(=S)N/N=C\c1ccc(-c2cccc(Cl)c2Cl)o1	32	0.1	x	x	x	7	x	-7	1.0	19%
CN(Cc1cn(C)nc1-c1cccc(Cl)c1)Cc1nccn1C	-2	-0.6	2	-3	0.3	-4	6.6	-3	0.8	82%
Cc1cccc(C2c3[nH]c4ccccc4c3CCN2C(=O)c2nn(C)c(=O)c3ccccc23)n1 (centres undefined)	17	-0.6	-14	-16	-1.3	5	13	-4	0.3	x

(cont.)
Compound	T cruzi inh	RanGTP-Imp inh	Ecoli rRNA inh	Ecoli rRNA inh OD600	Ecoli rRNA inh RFP	Beta cell apopt	AF4-AF9 inh	Calb FLC	Bfl-1 A1 inh	Vif A3G
COc1ccccc1-c1noc(-c2cccs2)n1	-4	2.1	1	9	0.3	-8	-2.6	-1	-5.4	-8%
COc1ccc(NC(=O)N(C)C[C@H]2Oc3ccc(NC(=O)Cn4cnnn4)cc3C(=O)N([C@H](C)CO)C[C@@H]2C)cc1	x	x	-2&7	-12&11	-2.6&-2.3	-2	-0.5&-2.8	x	-0.3	x
COc1ccc(CC(=O)OCC(=O)c2ccc(OC)cc2)cc1	-24	-0.2	x	x	x	-1	x	46	0.4	-2%
O=C(OCC(=O)N1CCN(C(=O)c2ccco2)CC1)c1cc(-c2ccco2)nc2ccccc12	1	-4.0	-1	9	-8.0	1	13	-15	-0.3	4µM*
CCOc1ccc(NC(=O)[C@@H]2CCCN2C(=O)c2cccs2)cc1S(=O)(=O)N1CCCCC1	x	x	3	-3	1.4	1	-0.3	x	0.3	x
COc1cc(NS(=O)(=O)c2ccc(NC(=O)CN3C(=O)c4ccccc4C3=O)cc2)nc(OC)n1	-14	6.9	14	8	-0.8	-6	-0.7	-16	0.2	4%
Cc1ccc2c(nc3s/c(=C\c4ccc(-c5ccccc5C(=O)O)o4)c(=O)n32)c1C	-23	-3.9	8	14	0.5	-21	-1.4	16	0.4	x

Assay outcomes from PubChem BioAssay.

An excerpt; count on the stated rates, not on these rows.
